# miR-21 reporter: qHTS Assay for Modulators of miRNAs and/orActivators of miR-21. 340,000 tested, under 10 active. HeLa miR-21 FLuc reporter, luciferase, 48 h. Potency, µM (doses to about 38.3 µM), inactives show top-dose reporter change, positive = more light; active = well fitted rising curve with a large enough effect; inconclusive = small, poorly fitted or top-dose-only effect; inactive = no such curve, though single readings can be large or run the other way;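 also: % of control where 0% means no effect; miR-21 action dims this reporter so a rising signal means less miR-21 action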
#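 Compounds were titrated across several concentrations (up to approximately 40 uM) and incubated 48 hours with HeLa miR-21-FLuc reporter cells (miR-21 target sequence downstream of FLuc, endogenous miR-21). Readout was firefly luciferase luminescence after lytic detection reagent.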
# GLA inh pH 4.5: qHTS Assay for Inhibitors of Human alpha-Galactosidase at pH 4.5. Alpha-galactosidase A (Homo sapiens), P06280. purified enzyme, 4-MU-alpha-Gal fluorescence, pH 4.5. activity change, negative = inhibition, % at 105 µM. 230,000 tested, under 10 active. AID 1467, 2008; inconclusive = small, poorly fitted or top-dose-only inhibition, or a rising curve; inactive = flat fitted curve, though single readings scatter; no compound was filed as active;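 also: 0% = full activity with enzyme and -100% = basal without enzyme; dose as in the result columns while the protocol names 77 µM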
# Target sequence (P06280 whole entry, looked up): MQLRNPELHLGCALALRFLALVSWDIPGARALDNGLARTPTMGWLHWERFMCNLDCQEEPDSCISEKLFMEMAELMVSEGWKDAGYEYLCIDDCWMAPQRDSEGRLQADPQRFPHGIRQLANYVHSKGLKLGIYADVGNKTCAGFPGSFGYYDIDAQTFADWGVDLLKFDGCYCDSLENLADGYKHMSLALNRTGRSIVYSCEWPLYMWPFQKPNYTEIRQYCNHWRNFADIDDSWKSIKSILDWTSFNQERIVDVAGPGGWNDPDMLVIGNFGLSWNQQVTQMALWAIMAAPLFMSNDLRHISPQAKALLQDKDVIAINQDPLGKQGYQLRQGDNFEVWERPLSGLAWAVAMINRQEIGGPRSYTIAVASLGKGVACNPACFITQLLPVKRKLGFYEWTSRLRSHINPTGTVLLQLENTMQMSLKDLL
# Rango dissoc inh: qHTS Assay for Inhibitors of RanGTP induced Rango (Ran-regulated importin-beta cargo) - Importin beta complex dissociation. Biochemical FRET Rango-importin beta, RanGTP-induced dissociation. Potency, µM (highest dose often 46.1 µM), without a hit: at the highest dose activity change, negative = inhibition. 340,000 tested, 0.071% active; active means falling FRET ratio curve, often poorly fitted, with flat reads before Ran was added; inconclusive means other falling curves, or compound fluorescence or quenching; inactive means flat or rising ratio curve;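 also: potency is read from the fitted curve at half-maximal effect; % of control where 0% means no effect; nearly all actives have a fitted effect of over 45% in size; -100% = wells without RanGTP and RCC1; the record marks most hits as doubtful in a second field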
#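 Rango (0.1 uM)–importin beta (0.25 uM) complex; RanGTP-RCC1 trigger; 45 min RT; CFP/YFP FRET read.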
# Rango complex inh: qHTS Assay for Inhibitors of Rango (Ran-regulated importin-beta cargo) - Importin beta complex formation; Potency, µM (titrated, usually from 92.2 µM), for inactives: at the highest dose inhibition of complex formation; AID 540263, 2011; Importin subunit beta-1 (Homo sapiens), Q14974; Rango CFP/YFP FRET sensor + importin beta, 45 min; 340,000 tested, 0.031% active; active = rising FRET ratio curve, often small or poorly fitted; inconclusive = mostly compound fluorescence or quenching in the first reads; inactive = flat curves in all reads;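 also: potency is read from the fitted curve at half-maximal effect; 0% = DMSO wells and 100% = buffer wells lacking importin beta; nearly all actives have a fitted effect of over 15% in size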
#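 Inhibition scored from the CFP 486 nm/YFP 530 nm FRET ratio 45 min after adding 0.125 microM importin beta to 50 nM Rango biosensor preincubated 5 min with compound (room temperature, PBS with DTT, Tween-20, BSA). No-importin wells as positive control.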
# * marks the source's active call; other numbers are inactive results; ? = inconclusive; nt = not tested or not shown; & = joins results of further samples. These rows are one share of the data (hit frequency here may not be typical).
# The opening four entries (preview)
miR-21 reporter	GLA inh pH 4.5	Rango dissoc inh	Rango complex inh	compound
0%	0	-7%	?	Cc1ccc(/C(O)=C2\C(=O)C(=O)N(CC(C)O)C2c2ccc(N(C)C)cc2)cc1 (stereo not given)
-7%	0	-2%	?	CNC(=O)NC(=O)CSc1nnc(-c2ccco2)n1Cc1ccccc1
23%	0	-24%	?	Nc1nc(Cl)cc(N2CCC(c3cc(-c4ccc(Cl)cc4Cl)n[nH]3)CC2)n1
-4%	1	2%	-0.9%	Cn1c(SCC(=O)Nc2cc(S(=O)(=O)N3CCOCC3)ccc2N2CCOCC2)nnc1-c1ccncc1

# This part in full, repeating the preview:
miR-21 reporter	GLA inh pH 4.5	Rango dissoc inh	Rango complex inh	compound
0%	0	-7%	?	Cc1ccc(/C(O)=C2\C(=O)C(=O)N(CC(C)O)C2c2ccc(N(C)C)cc2)cc1 (stereo not given)
-7%	0	-2%	?	CNC(=O)NC(=O)CSc1nnc(-c2ccco2)n1Cc1ccccc1
23%	0	-24%	?	Nc1nc(Cl)cc(N2CCC(c3cc(-c4ccc(Cl)cc4Cl)n[nH]3)CC2)n1
-4%	1	2%	-0.9%	Cn1c(SCC(=O)Nc2cc(S(=O)(=O)N3CCOCC3)ccc2N2CCOCC2)nnc1-c1ccncc1
0%	1	9%	3.3%	COC(=O)CNC(=O)COC(=O)/C=C/c1ccccc1[N+](=O)[O-]
-1%	5	-23%	0.2%	Cc1ccc(CNC(=O)C(NS(=O)(=O)c2ccc3nc(C)sc3c2)C(C)C)cc1 (stereo not given)
0%	-8	0%	2.5%	CCOC(=O)Nc1ccc2c(c1)Nc1ccccc1S2
-9%	9	-16%	?	CCCc1nn2c(=O)c(C(c3ccc(C)cc3)c3c(O)nc4sc(CCC)nn4c3=O)c(O)nc2s1
nt	nt	-8%	1.9%	O=C(Cc1cccc(NC(=O)C2CCCN(C(=O)c3ccccc3)C2)c1)Nc1ccc(C(=O)N2CCCCC2)cc1 (stereo not given)
-3%	nt	2%	-0.3%	COCCn1c(SCC(=O)NC2CCCCC2C)nnc1-c1ccncc1 (stereo not given)
-5%	-11	16%	1.2%	CCOC(=O)Cc1c(C)nc(N)[nH]c1=O
nt	nt	12%	-0.4%	CCOc1ccc(NS(=O)(=O)c2ccc(C(=O)N3CCCC(C)C3)cc2)cc1 (stereo not given)
-13%	nt	-22%	3.3%	COc1ccnc2c1c(=O)n(Cc1ccc(Cl)cc1)c(=O)n2C
-5%	nt	13%	-0.1%	CC(=O)N1c2ccc(S(=O)(=O)N3CCC(C(=O)Nc4ncccc4C)CC3)cc2CC1C (stereo not given)
nt	nt	5%	2.7%	Cc1nc(SC(C)C(=O)NCc2ccc3c(c2)OCO3)nc(C)c1C (stereo not given)
-10%	-4	-13%	0.3%	CC(OC(=O)C1CCC(=O)N1)C(=O)Nc1cc(Cl)cc(Cl)c1 (stereo not given)
-4%	6	-2%	-3.4%	COc1cc(C(=O)NCCC(=O)NC2CCCCCCC2)cc(OC)c1OC
-3%	0	17%	?	CCOc1ccc(-n2c(Cc3cc(=O)[nH]c(=O)[nH]3)nnc2SCC(N)=O)cc1
nt	nt	8%	-8.4%	CCN(C(=O)COC(=O)CC1CCCCC1)c1c(N)n(Cc2ccccc2)c(=O)[nH]c1=O
-7%	4	-4%	5.6%	CC(=O)Nc1ccc(NC(=O)C23CC4CC(C2)CC(n2cnc(Br)n2)(C4)C3)cc1
0%	-23	0%	-2.2%	CN(/N=C/c1ccccc1Cl)c1ncc(Cl)cc1C(F)(F)F
-1%	nt	0%	-3.6%	CC(=O)c1cccc(OCc2cc(C(=O)N3CCC(N4CCCCC4)CC3)no2)c1
-8%	0	1%	8.7%	CC(=C/C(=O)O)/C(=C/c1ccccc1)C(=O)O
nt	nt	-9%	?	N#Cc1ccc(OCC(=O)Nc2ccc(S(=O)(=O)N3CCOCC3)cc2)cc1
0%	-11	-15%	-0.2%	COc1cc(CC(=O)OCC(=O)Nc2ccc3c(c2)OCO3)cc(OC)c1OC
-3%	6	11%	4.0%	Cc1nn(C(C)c2n[nH]c(=S)n2-c2ccc(F)cc2)c(C)c1[N+](=O)[O-] (stereo not given)
nt	nt	-1%	6.8%	Cc1ccc(S(=O)(=O)NN=Cc2cc(Cl)ccc2O)cc1
-6%	-1	13%	0.1%	O=C(NCc1ccc2c(c1)OCO2)C1CC(=O)N(c2ccc(F)cc2)C1 (stereo not given)
-38%	?	-13%	2.3%	COc1ccc(C/C(=N\O)c2ccc(OC)cc2)cc1
4%	0	3%	-6.1%	Cc1nn(C)c(C)c1S(=O)(=O)N1CCC(CO)(Cc2ccc(Cl)cc2)CC1
0%	-10	-17%	-2.9%	NC(=NCCc1c[nH]c2ccccc12)NC(=O)c1ccc(F)cc1
0%	nt	15%	3.6%	O=C(Nc1ccc(Cl)cc1N1CCOCC1)C1CCCCC1
2%	-1	-1%	4.7%	Cc1ccc(-n2c(Cc3cccs3)nnc2SCC(=O)Nc2ccc(F)c(F)c2)cc1
-2%	6	-4%	0.9%	O=S(=O)(NCC1CCCO1)c1ccc2c(c1)OCCO2 (stereo not given)
-1%	4	29%	-2.1%	Cc1ccc(C(=O)N(C)CC(=O)Nc2ccc(F)c(F)c2F)o1
-37%	5	6%	0.0%	O=C(Nc1ncnc2sc3c(c12)CCC3)c1ccco1
-27%	0	2%	0.2%	CCN(CC)C(=O)c1ccc(COc2ccccc2Br)o1
2%	-4	-11%	0.1%	Cc1cc(Br)c(S(=O)(=O)n2nnc3ccccc32)cc1C
-52%	7	22%	2.2%	COc1cccc(-c2cc(C(=O)NCc3cccs3)no2)c1
6%	-5	14%	-1.3%	COc1cc(C(=O)OCC(=O)Nc2cc(C)on2)c([N+](=O)[O-])cc1OC
nt	nt	0%	4.0%	CN1CCN(c2ccc(S(=O)(=O)N3CCOCC3)cc2NC(=O)CC(C)(C)C)CC1
nt	nt	0%	-5.0%	CSc1ncccc1C(=O)Nc1ccc2c(c1)OCO2
1%	-1	-5%	1.4%	Cc1nc2ccc3nc(NC(=O)c4ccc(S(=O)(=O)N5CCOCC5)cc4)sc3c2s1
-13%	-4	4%	3.6%	O=C(CCC1CCCN(C(=O)C2(c3ccccc3)CC2)C1)N1CCN(c2ccccn2)CC1 (stereo not given)
-2%	-4	17%	-4.8%	O=C(c1cccc(F)c1)N1CCN(C(=O)c2cc(-c3ccc(Cl)cc3Cl)on2)CC1
-11%	-8	-19%	-1.9%	COc1cc(C)c(Br)cc1S(=O)(=O)N1CCCC1
10%	-2	3%	0.1%	COc1ccc(S(=O)(=O)N2CCC(NC(=O)Nc3ccc(C)cc3)CC2)cc1
-94%	nt	1%	1.7%	Cc1cc(Cl)c2oc(C(=O)N(C)Cc3ccon3)c(C)c2c1
1%	-4	-4%	1.6%	CN(C(=O)CSc1ncccc1C(=O)O)c1ccccc1
-2%	-19	0%	3.7%	O=C1c2ccccc2C(=O)N1CCc1nc(-c2ccc(Cl)cc2)no1

# One compound at a time (already shown). Order of values: miR-21 reporter | GLA inh pH 4.5 | Rango dissoc inh | Rango complex inh
# Shown for `Cc1nn(C(C)c2n[nH]c(=S)n2-c2ccc(F)cc2)c(C)c1[N+](=O)[O-]` (stereo not given) → -3% | 6 | 11% | 4.0%
# Shown for `CCN(CC)C(=O)c1ccc(COc2ccccc2Br)o1` → -27% | 0 | 2% | 0.2%
# Shown for `CC(=O)Nc1ccc(NC(=O)C23CC4CC(C2)CC(n2cnc(Br)n2)(C4)C3)cc1` → -7% | 4 | -4% | 5.6%
# Shown for `O=C(CCC1CCCN(C(=O)C2(c3ccccc3)CC2)C1)N1CCN(c2ccccn2)CC1` (stereo not given) → -13% | -4 | 4% | 3.6%
# Shown for `COc1ccc(S(=O)(=O)N2CCC(NC(=O)Nc3ccc(C)cc3)CC2)cc1` → 10% | -2 | 3% | 0.1%

# (further entries)
miR-21 reporter	GLA inh pH 4.5	Rango dissoc inh	Rango complex inh	compound
0%	-8	1%	?	Cc1ccc([N+](=O)[O-])c(OCC(O)CNC(C)(C)C)c1 (stereo not given)
-9%	-5	-7%	1.7%	COC(=O)c1cc(C(=O)OC)cc(S(=O)(=O)Nc2ccc(Cl)c(N)c2)c1
5%	nt	2%	-1.8%	Cn1c(=O)c2c(nc(SCCN3CCOCC3)n2C)n(C)c1=O
-29%	nt	-8%	-1.6%	COc1ccccc1C(=O)N/N=C(\C)CC(=O)Nc1ccccc1NC(C)=O
18%	nt	26%	0.5%	Cc1cc(S(=O)(=O)N2CCN(c3ccc(F)cc3)CC2)ccc1-n1cnnn1
1%	-13	-7%	1.9%	O=C(Cn1ncc2c(=O)oc3ccccc3c21)NCC1COc2ccccc2O1 (stereo not given)
nt	nt	15%	0.7%	O=C(OCC(=O)N1CCc2ccccc21)c1ccncc1
-16%	10	-12%	1.2%	COc1ccc(CSc2nc(C)cc(=O)[nH]2)cc1
-3%	1	-14%	3.7%	COc1ccc(NC(=O)C(c2ccc(OC)cc2)N(C)C(=O)CC2NC(=O)NC2=O)cc1 (stereo not given)
-52%	0	-4%	3.3%	CCCCCc1nnc(NC(=O)C2CCCO2)s1 (stereo not given)

# 2 compounds from above, showing only Rango complex inh, GLA inh pH 4.5 and miR-21 reporter:
Structure	Rango complex inh	GLA inh pH 4.5	miR-21 reporter
CCCCCc1nnc(NC(=O)C2CCCO2)s1 (stereo not given)	3.3%	0	-52%
COc1ccc(NC(=O)C(c2ccc(OC)cc2)N(C)C(=O)CC2NC(=O)NC2=O)cc1 (stereo not given)	3.7%	1	-3%

# Other structures
miR-21 reporter	GLA inh pH 4.5	Rango dissoc inh	Rango complex inh	compound
-6%	-5	10%	4.8%	Nc1c(-c2ccccc2)cnn1C1CCS(=O)(=O)C1 (stereo not given)
6%	-8	-10%	-4.0%	O=C(O)c1cc(/C=C/c2ccc(N3CCOCC3)c([N+](=O)[O-])c2)nc2ccccc12
13%	-10	10%	-1.0%	O=C(N/C(=C\c1ccc(-c2ccccc2)o1)C(=O)N1CCOCC1)c1ccccc1
-3%	nt	-7%	-0.2%	CCOc1ccc(C(C)=O)cc1CN1c2ccc(S(N)(=O)=O)cc2CC1C (stereo not given)
0%	nt	1%	-0.4%	Cc1ccc(CN(C)CC(=O)NC(C)c2ccccc2)cc1 (stereo not given)
3%	7	-4%	1.1%	O=C(Cn1nnc(-c2cccc(C(F)(F)F)c2)n1)NC(=O)NCc1ccco1
-22%	-4	0%	0.3%	O=C(NCCSc1c[nH]c2ccccc12)c1ccc2c(c1)OCO2
-21%&-25%	nt	3%	0.3%	CCn1c2ccccc2c2nnc(SCCN3CCCCC3)nc21
-21%	8	17%	0.1%	Fc1cccc(Cl)c1CSc1ccc2nnc(-c3ccccn3)n2n1
-27%	-7	15%	-1.6%	COc1ccc(-c2noc(-c3ccc(Br)o3)n2)cc1
-3%	nt	-1%	3.9%	COc1ccc(-c2nc(CN3CCN(C(=O)c4ccco4)CC3)c(C)o2)c(F)c1
-12%	-3	-10%	-3.0%	COC(=O)c1ccccc1NC(=O)c1cccc(NC(=O)C(C)C)c1
-8%	5	6%	5.2%	CCOC(CCNC(=O)c1cn(-c2cccc(C)n2)cn1)OCC
-3%	nt	0%	4.7%	Cc1ccc(C(=O)C2=C(O)C(=O)N(Cc3cccnc3)C2c2ccc(Cl)cc2)o1 (stereo not given)
9%	1	-18%	-0.3%	CCOC(=O)C1=C(C)N=C2c3ccccc3C(=O)C2C1c1ccc(Cl)cc1 (stereo not given)
0%	-1	-6%	-0.1%	COc1cnc(SCc2ccc(Cl)cc2)nc1Cl
2%	nt	-8%	-3.5%	CCc1ccc(C(C)NC(=O)c2ccncc2)cc1 (stereo not given)
12%	-7	6%	-7.3%	CN(C)c1cc(-c2ccccc2)nc(N)n1
-2%	nt	32%	-1.7%	O=c1c2ccccc2[nH]c(=S)n1CCN1CCCCC1
-2%	nt	10%	-1.0%	O=C1CN(C(=O)C2CCC(=O)N(CCc3ccc(Cl)cc3)C2)CCN1 (stereo not given)
-3%	nt	3%	-1.5%	Cc1ccc(CNC(=O)[C@H](C)NC(=O)C2CCN(C(=O)[C@@H]3CCCN3C(=O)OC(C)(C)C)CC2)cc1

# Screening results as filed in PubChem BioAssay.
